High-throughput results: PubChem, Broad Institute
A1 apoptosis 2 = blocks A1, raising caspase activity. MEF A1-2A-BIM cells, caspase-Glo luminescence, 3 h; percent of clofoctol response, DMSO zero. caspase activation, % (no concentration beside the values). 24,000 tested, under 10 active. AID 2465; in the data active means caspase activation above about 5.9%;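 further: wells of about 30 µL received 50 nL stock; the first replicate is given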
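Test system – A1-2A-BIM-expressing MEF cells · Input – 2500 cells/well · Medium – RPMI-1640 growth medium with 10% FBS · Compound dosing – 50 nL pinned compound · Timing – 3 h compound exposure at 37 °C · Technique – Caspase-Glo luminescence (DEVD substrate) · Evaluation – Caspase-3/7 activity from luminescence increase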
An asterisk follows results filed as active.

The opening 14 records (preview)
SMILES | A1 apoptosis 2
C[C@@H]1CN([C@@H](C)CO)C(=O)c2cc(NS(=O)(=O)c3cccs3)ccc2O[C@@H](C)CCCCO[C@H]1CN(C)C(=O)Nc1ccc(F)cc1 | -0.8
C[C@@H]1CN([C@H](C)CO)C(=O)c2cc(NC(=O)Nc3ccc4c(c3)OCO4)ccc2O[C@@H]1CN(C)S(=O)(=O)c1ccc(Cl)cc1 | 0.7
C[C@@H]1CN([C@H](C)CO)C(=O)c2cccc(NC(=O)NC3CCCCC3)c2O[C@H]1CN(C)Cc1ccccc1 | -1.6
COc1ccc(CN(C)C[C@@H]2Oc3c(NC(=O)Nc4ccc(C(F)(F)F)cc4)cccc3C(=O)N([C@@H](C)CO)C[C@H]2C)cc1 | 0.2
COc1ccc(S(=O)(=O)N(C)C[C@@H]2OCCCC[C@H](C)Oc3ccc(NS(C)(=O)=O)cc3C(=O)N([C@H](C)CO)C[C@@H]2C)cc1 | -0.1
Cc1noc(C)c1S(=O)(=O)N(C)C[C@@H]1Oc2c(NC(=O)C3CCCCC3)cccc2C(=O)N([C@@H](C)CO)C[C@@H]1C | 0.6
COc1ccc(S(=O)(=O)N(C)C[C@@H]2Oc3c(NC(=O)C4CCOCC4)cccc3C(=O)N([C@@H](C)CO)C[C@@H]2C)cc1 | 1.1
C[C@@H]1CCCCO[C@H](CN(C)CC2CC2)[C@H](C)CN([C@@H](C)CO)C(=O)c2cc(NC(=O)c3ccncc3)ccc2O1 | 0.0
Cc1ccc(S(=O)(=O)N(C)C[C@H]2OCCCC[C@H](C)Oc3ccc(NS(=O)(=O)c4ccc(Cl)cc4)cc3C(=O)N([C@@H](C)CO)C[C@@H]2C)cc1 | 0.8
C[C@@H]1CN([C@@H](C)CO)C(=O)c2cc(NC(=O)Nc3ccccc3)ccc2O[C@@H](C)CCCCO[C@@H]1CN(C)C | 1.7
C[C@@H]1CN([C@H](C)CO)C(=O)c2cc(NS(=O)(=O)c3ccc(F)cc3)ccc2O[C@@H](C)CCCCO[C@H]1CN(C)S(=O)(=O)c1ccccc1 | -1.6
C[C@H](CO)N1C[C@H](C)[C@@H](CN(C)Cc2ccc3c(c2)OCO3)Oc2ccc(NC(=O)Cc3ccccc3)cc2CC1=O | -0.2
CC(C)NC(=O)Nc1ccc2c(c1)CC(=O)N([C@@H](C)CO)C[C@H](C)[C@@H](CN(C)Cc1ccc3c(c1)OCO3)O2 | -0.2
C[C@H](CO)N1C[C@H](C)[C@@H](CN(C)Cc2ccc3c(c2)OCO3)Oc2ccc(N(C)C)cc2C1=O | 0.1

The whole of this part, previewed entries included:
SMILES | A1 apoptosis 2
C[C@@H]1CN([C@@H](C)CO)C(=O)c2cc(NS(=O)(=O)c3cccs3)ccc2O[C@@H](C)CCCCO[C@H]1CN(C)C(=O)Nc1ccc(F)cc1 | -0.8
C[C@@H]1CN([C@H](C)CO)C(=O)c2cc(NC(=O)Nc3ccc4c(c3)OCO4)ccc2O[C@@H]1CN(C)S(=O)(=O)c1ccc(Cl)cc1 | 0.7
C[C@@H]1CN([C@H](C)CO)C(=O)c2cccc(NC(=O)NC3CCCCC3)c2O[C@H]1CN(C)Cc1ccccc1 | -1.6
COc1ccc(CN(C)C[C@@H]2Oc3c(NC(=O)Nc4ccc(C(F)(F)F)cc4)cccc3C(=O)N([C@@H](C)CO)C[C@H]2C)cc1 | 0.2
COc1ccc(S(=O)(=O)N(C)C[C@@H]2OCCCC[C@H](C)Oc3ccc(NS(C)(=O)=O)cc3C(=O)N([C@H](C)CO)C[C@@H]2C)cc1 | -0.1
Cc1noc(C)c1S(=O)(=O)N(C)C[C@@H]1Oc2c(NC(=O)C3CCCCC3)cccc2C(=O)N([C@@H](C)CO)C[C@@H]1C | 0.6
COc1ccc(S(=O)(=O)N(C)C[C@@H]2Oc3c(NC(=O)C4CCOCC4)cccc3C(=O)N([C@@H](C)CO)C[C@@H]2C)cc1 | 1.1
C[C@@H]1CCCCO[C@H](CN(C)CC2CC2)[C@H](C)CN([C@@H](C)CO)C(=O)c2cc(NC(=O)c3ccncc3)ccc2O1 | 0.0
Cc1ccc(S(=O)(=O)N(C)C[C@H]2OCCCC[C@H](C)Oc3ccc(NS(=O)(=O)c4ccc(Cl)cc4)cc3C(=O)N([C@@H](C)CO)C[C@@H]2C)cc1 | 0.8
C[C@@H]1CN([C@@H](C)CO)C(=O)c2cc(NC(=O)Nc3ccccc3)ccc2O[C@@H](C)CCCCO[C@@H]1CN(C)C | 1.7
C[C@@H]1CN([C@H](C)CO)C(=O)c2cc(NS(=O)(=O)c3ccc(F)cc3)ccc2O[C@@H](C)CCCCO[C@H]1CN(C)S(=O)(=O)c1ccccc1 | -1.6
C[C@H](CO)N1C[C@H](C)[C@@H](CN(C)Cc2ccc3c(c2)OCO3)Oc2ccc(NC(=O)Cc3ccccc3)cc2CC1=O | -0.2
CC(C)NC(=O)Nc1ccc2c(c1)CC(=O)N([C@@H](C)CO)C[C@H](C)[C@@H](CN(C)Cc1ccc3c(c1)OCO3)O2 | -0.2
C[C@H](CO)N1C[C@H](C)[C@@H](CN(C)Cc2ccc3c(c2)OCO3)Oc2ccc(N(C)C)cc2C1=O | 0.1
CO[C@H]1O[C@H](CO)[C@@H](OC(=O)Nc2ccccc2)[C@H](OC(=O)Nc2ccc3c(c2)OCO3)[C@H]1OC(=O)Nc1ccc2c(c1)OCO2 | -0.1
C[C@H](CO)N1C[C@H](C)[C@@H](CN(C)CC2CCCCC2)Oc2c(NS(=O)(=O)c3ccccc3)cccc2C1=O | -0.2
C[C@@H]1CN([C@@H](C)CO)C(=O)c2cc(NC(=O)CCC(F)(F)F)ccc2O[C@@H](C)CCCCO[C@H]1CN(C)Cc1ccccc1 | -2.7
COc1ccc(NC(=O)N(C)C[C@@H]2OCCCC[C@H](C)Oc3ccc(NC(=O)c4ccccc4)cc3C(=O)N([C@H](C)CO)C[C@H]2C)cc1 | 0.4
Cc1noc(C)c1S(=O)(=O)Nc1ccc2c(c1)C(=O)N([C@H](C)CO)C[C@H](C)[C@H](CN(C)C(=O)NC1CCCCC1)OCCCC[C@H](C)O2 | -1.4
C#CCNC(=O)C1=C[C@H](c2cn(C(C)=O)c3ccccc23)C[C@H](OCCCCO)O1 | 1.0
COc1ccc(NC(=O)N(C)C[C@H]2OCCCC[C@H](C)Oc3ccc(NC(=O)CCC(F)(F)F)cc3C(=O)N([C@H](C)CO)C[C@@H]2C)cc1 | -0.6
C[C@H](CO)N1C[C@H](C)[C@H](CN(C)S(=O)(=O)c2ccccc2)Oc2c(NC(=O)c3cnccn3)cccc2C1=O | -0.5
C[C@H](CO)N1C[C@H](C)[C@@H](CN(C)S(=O)(=O)c2ccc(C#N)cc2)OCc2cn(nn2)CCCC1=O | 0.1
C[C@H](CO)N1C[C@H](C)[C@H](CN(C)CC2CC2)OCc2cn(nn2)CCCC1=O | -0.3
COc1ccc(S(=O)(=O)Nc2ccc3c(c2)CC(=O)N([C@H](C)CO)C[C@H](C)[C@H](CN(C)S(=O)(=O)c2ccccc2)O3)cc1 | 0.7
Cc1ccc(S(=O)(=O)Nc2ccc3c(c2)C(=O)N([C@@H](C)CO)C[C@H](C)[C@H](CN(C)C(=O)CCCN(C)C)OCCCC[C@H](C)O3)cc1 | -1.3
C[C@@H]1CN([C@H](C)CO)C(=O)CCCn2nncc2CO[C@H]1CN(C)S(=O)(=O)c1ccc(F)cc1 | -0.2
C[C@H](CO)N1C[C@H](C)[C@@H](CN(C)Cc2ccc(C(F)(F)F)cc2)Oc2ccc(NC(=O)CCCCCC(=O)Nc3ccccc3N)cc2CC1=O | 1.9
CC(C)NC(=O)Nc1ccc2c(c1)C(=O)N([C@H](C)CO)C[C@H](C)[C@H](CN(C)C(=O)c1ccncc1)OCCCC[C@H](C)O2 | 0.1
C[C@@H]1CN([C@@H](C)CO)C(=O)CCCn2nncc2CO[C@H]1CN(C)Cc1cccc(C(F)(F)F)c1 | -1.0
COc1ccc(/C=N/NC(=O)CCCCCC(=O)Nc2ccccc2O)cc1 | 0.4
C[C@@H]1CN([C@H](C)CO)C(=O)c2cccc(NC(=O)C3CCOCC3)c2O[C@H]1CN(C)C(=O)Nc1cccc2ccccc12 | -1.3
C[C@@H]1CN([C@@H](C)CO)C(=O)c2cc(NS(=O)(=O)c3cn(C)cn3)ccc2O[C@H]1CN(C)Cc1ccc(-c2ccccc2)cc1 | -0.3
C[C@H]1CCCCO[C@@H](CN(C)C(=O)Nc2ccc(C(F)(F)F)cc2)[C@@H](C)CN([C@@H](C)CO)C(=O)c2cc(NS(C)(=O)=O)ccc2O1 | -0.7
CNC[C@@H]1OCCCC[C@@H](C)Oc2ccc(NS(=O)(=O)c3ccc(C)cc3)cc2C(=O)N([C@H](C)CO)C[C@@H]1C | 1.5
COc1ccc(S(=O)(=O)N(C)C[C@H]2OCCCC[C@@H](C)Oc3ccc(NS(C)(=O)=O)cc3C(=O)N([C@H](C)CO)C[C@@H]2C)cc1 | 0.5
C[C@H](CO)N1C[C@H](C)[C@@H](CN(C)S(=O)(=O)c2cccs2)Oc2c(NC(=O)Nc3ccc(F)cc3)cccc2C1=O | -1.7
COc1ccc(CN(C)C[C@@H]2Oc3ccc(NC(=O)Nc4ccccc4)cc3CC(=O)N([C@@H](C)CO)C[C@H]2C)cc1 | 0.2
COc1ccc(NC(=O)N(C)C[C@@H]2Oc3ccc(NC(=O)C4CC4)cc3CC(=O)N([C@@H](C)CO)C[C@H]2C)cc1 | -0.6
C[C@@H]1CCCCO[C@H](CN(C)C(=O)c2ccccc2)[C@@H](C)CN([C@@H](C)CO)C(=O)c2cc(NS(=O)(=O)c3ccccc3)ccc2O1 | -0.4
C[C@@H]1CCCCO[C@H](CN(C)S(C)(=O)=O)[C@@H](C)CN([C@H](C)CO)C(=O)c2cc(NC(=O)CCCN(C)C)ccc2O1 | 0.7
C[C@@H]1CN([C@H](C)CO)C(=O)c2cc(NS(=O)(=O)c3ccc(Cl)cc3)ccc2O[C@H]1CN(C)C(=O)Nc1cccc2ccccc12 | -0.2
C[C@@H]1CN([C@@H](C)CO)C(=O)Cc2cc(NS(=O)(=O)c3ccccc3)ccc2O[C@H]1CN(C)S(=O)(=O)c1cn(C)cn1 | -0.1
Cc1ccc(S(=O)(=O)N(C)C[C@H]2Oc3ccc(NC(=O)Nc4ccc(F)cc4)cc3CC(=O)N([C@H](C)CO)C[C@@H]2C)cc1 | 0.7
C[C@H]1CN([C@@H](C)CO)C(=O)c2cccc(NC(=O)Nc3ccc(C(F)(F)F)cc3)c2O[C@@H]1CN(C)Cc1ccc(-c2ccccc2)cc1 | -2.3
Cc1noc(C)c1NC(=O)N(C)C[C@H]1Oc2ccc(NC(=O)Nc3cccc4ccccc34)cc2C(=O)N([C@@H](C)CO)C[C@H]1C | -1.1
C[C@H](CO)N1C[C@H](C)[C@@H](CN(C)C(=O)Nc2ccc(F)cc2)Oc2ccc(NC(=O)CCN3CCOCC3)cc2C1=O | 0.8
Cc1noc(C)c1NC(=O)N(C)C[C@@H]1Oc2ccc(NC(=O)Cc3cn(C)c4ccccc34)cc2CC(=O)N([C@@H](C)CO)C[C@@H]1C | 0.3

Molecules shown so far containing a thiophene ring, fused or not, in the order listed:
SMILES | A1 apoptosis 2
C[C@@H]1CN([C@@H](C)CO)C(=O)c2cc(NS(=O)(=O)c3cccs3)ccc2O[C@@H](C)CCCCO[C@H]1CN(C)C(=O)Nc1ccc(F)cc1 | -0.8
C[C@H](CO)N1C[C@H](C)[C@@H](CN(C)S(=O)(=O)c2cccs2)Oc2c(NC(=O)Nc3ccc(F)cc3)cccc2C1=O | -1.7

(listing goes on)
SMILES | A1 apoptosis 2
COC(=O)CCCCCCC(=O)N/N=C/c1sccc1C | 1.1
CNC[C@H]1Oc2ccc(NC(=O)C3CC3)cc2C(=O)N([C@@H](C)CO)C[C@H]1C | 0.8
C[C@@H]1CN([C@H](C)CO)C(=O)c2cc(NC(=O)C3CCCCC3)ccc2O[C@@H](C)CCCCO[C@H]1CN(C)C(=O)Cc1ccccc1 | 1.7
Cc1noc(C)c1S(=O)(=O)Nc1ccc2c(c1)C(=O)N([C@H](C)CO)C[C@H](C)[C@H](CN(C)C(=O)Nc1ccc(C(F)(F)F)cc1)OCCCC[C@H](C)O2 | -0.3
COc1ccc(S(=O)(=O)N(C)C[C@H]2Oc3ccc(NC(=O)CCCN(C)C)cc3CC(=O)N([C@H](C)CO)C[C@@H]2C)cc1 | -0.7
COC(=O)N(C)C[C@H]1OCc2cn(nn2)CCCC(=O)N([C@H](C)CO)C[C@H]1C | 0.3
COc1ccc(NC(=O)Nc2ccc3c(c2)CC(=O)N([C@@H](C)CO)C[C@H](C)[C@@H](CN(C)CC2CC2)O3)cc1 | 0.4
Cc1ccc(S(=O)(=O)N(C)C[C@H]2OCCCC[C@@H](C)Oc3ccc(NS(C)(=O)=O)cc3C(=O)N([C@@H](C)CO)C[C@H]2C)cc1 | 0.1
Cc1noc(C)c1S(=O)(=O)N(C)C[C@@H]1Oc2ccc(NC(=O)c3ccncc3)cc2CC(=O)N([C@@H](C)CO)C[C@@H]1C | -0.5
C[C@H]1CN([C@@H](C)CO)C(=O)Cc2cc(NC(=O)CCN3CCOCC3)ccc2O[C@@H]1CN(C)C(=O)Nc1ccc(F)cc1 | 0.2
C[C@@H]1CCCCO[C@@H](CN(C)C(=O)Nc2ccccc2)[C@H](C)CN([C@H](C)CO)C(=O)c2cc(NS(C)(=O)=O)ccc2O1 | 1.2
C[C@@H]1CN([C@@H](C)CO)C(=O)Cc2cc(NS(=O)(=O)c3ccc(F)cc3)ccc2O[C@@H]1CN(C)Cc1ccc(C(=O)Nc2ccccc2N)cc1 | 1.0

This is a subset; rates above refer to the full screens.
